# Screening data (PubChem BioAssay)
# RE007 growth inh: less growth of the S. pombe RE007 Vpr strain; S. pombe RE007 Vpr strain, BacTiter-Glo ATP luminescence, 24 h; control for the full effect not named in the record; Potency, µM (titrated, usually from 92.2 µM), without a hit: at the top dose activity change, negative = less growth; actives 0.21% (n = 360,000); AID 651644; active = well fitted falling curve with a large enough effect; inconclusive = small, poorly fitted or top-dose-only effect; inactive = no such curve, though single readings can be large or run the other way;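 further: on the % scale 0 is the no-effect control and ±100 the full control effect; nearly all actives have a fitted effect of over 50% in size; the assay follows cell death caused by Vpr and the record does not say whether a fall means rescue or toxicity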
#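 Fission yeast strain RE007, carrying one chromosomally integrated HIV-1 vpr copy, was seeded at OD 0.01 in PMG+AL medium with 23 nL pinned compound. After 24 h at 30 °C and 99% humidity, viability was read by BacTiter-Glo luminescence.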
# LASV entry inh: inhibitors of Lassa virus binding or cell entry; Lassa virus pseudotype entry inhibition, cell reporter; control for the full effect not named in the record; Potency, µM (top dose mostly 37.9 µM), for inactives: top-dose activity change, negative = inhibition, actives largely listed as inhibitors; actives 1.2% (n = 300,000); AID 540256; active means well fitted inhibition curve with a large enough effect; inconclusive means small, poorly fitted or top-dose-only effect, or effect the other way; inactive means flat fitted curve, though single readings scatter; tested in HEK293 cells; further: on the % scale 0 is the no-effect control and ±100 the full control effect; nearly all actives have a fitted effect of over 50% in size; luciferase read-out
# NS1 inh: influenza NS1 inhibition. S. cerevisiae slowed by influenza A NS1, growth recovery by OD600. Potency, µM (highest dose often 46.1 µM), for the others: at the top dose activity, positive = more growth. actives 0.4% (n = 270,000); further: actives are rising curves; nearly all actives have a fitted effect of over 50% in size
#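 Growth recovery, yeast-based: influenza A NS1 expressed in S. cerevisiae causes slow growth, and suppressors are detected by OD600. The parent strain without NS1 is used as positive control.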
# SARS PLpro yeast: SARS-CoV PLP inhibition in yeast. S. cerevisiae expressing SARS-CoV PLpro, growth rescue; control for the full effect not named in the record. actives 0.19% (n = 330,000). Potency, µM (doses to about 32.9 µM), for the others: at the top dose activity, positive = growth rescue; further: 0% is about no effect; nearly all actives have a fitted effect of over 55% in size; growth read by luminescence after 48 h
# Cruzain noTriton: inhibitors of Trypanosoma cruzi cruzain without detergent; purified cruzain, Z-FR-AMC fluorescence, no detergent; Potency, µM, for inactives: max response, negative = inhibition, actives largely listed as inhibitors; actives 2.3% (n = 200,000); active means well fitted curve in the direction sought with a large enough effect; inconclusive means small, poorly fitted or top-dose-only effect, or another doubt; inactive means no such curve, though single readings can be large; an effect the other way counts as inactive or inconclusive;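 further: plate controls were enzyme without inhibitor for no effect and buffer without enzyme for full effect; nearly all actives have a fitted effect of over 40% in size; top concentration of the series not given in the record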
# Target sequence (P25779 123-467 limits assumed): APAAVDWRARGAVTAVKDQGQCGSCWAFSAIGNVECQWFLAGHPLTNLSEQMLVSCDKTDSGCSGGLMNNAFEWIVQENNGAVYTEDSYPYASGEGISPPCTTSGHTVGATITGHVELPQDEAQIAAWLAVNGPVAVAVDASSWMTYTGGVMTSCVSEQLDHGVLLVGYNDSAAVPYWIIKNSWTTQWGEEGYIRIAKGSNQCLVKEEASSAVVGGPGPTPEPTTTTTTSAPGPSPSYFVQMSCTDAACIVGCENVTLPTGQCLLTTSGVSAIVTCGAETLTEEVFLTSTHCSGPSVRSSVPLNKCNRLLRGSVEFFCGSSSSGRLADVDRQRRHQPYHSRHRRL
#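 Purified cruzain at 1.5 nM, pre-incubated 15 min with compound at room temperature in 100 mM sodium acetate pH 5.5, 5 mM DTT, 0.00005% Triton X-100. Reaction started with 2 uM Z-FR-AMC; AMC fluorescence increase over 60 s gives rate.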
# StopGo reporter: FMDV 2A StopGo reporter, luciferase signal. human cells with a luciferase reporter of 2A StopGo recoding; control for the full effect not named in the record. Potency, µM (doses to about 57.9 µM), without a hit: at the highest dose signal change, negative = less light. actives 1.2% (n = 410,000). AID 1159524; active = well fitted falling curve with a large enough effect; inconclusive = small, poorly fitted or top-dose-only effect; inactive = no such curve, though single readings can be large or run the other way; tested in HEK293T cells; further: on the % scale 0 is the no-effect control and ±100 the full control effect; nearly all actives have a fitted effect of over 45% in size; luciferase light after 4 h
# Cruzain Triton: blocks cruzain activity in presence of Triton detergent. P25779. purified cruzain, Z-FR-AMC fluorescence, 0.01% Triton. Potency, µM, without a hit: max response, negative = inhibition, hits mostly inhibitors. actives 0.43% (n = 200,000). AID 1478; active means well fitted curve in the direction sought with a large enough effect; inconclusive means small, poorly fitted or top-dose-only effect, or another doubt; inactive means no such curve, though single readings can be large; an effect the other way counts as inactive or inconclusive;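 further: plate controls were neutral wells for no effect and buffer without enzyme for full effect; nearly all actives have a fitted effect of over 40% in size; top concentration of the series not given in the record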
#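 Cysteine protease activity tested under reducing, mildly acidic conditions (100 mM sodium acetate pH 5.5, 5 mM DTT) plus 0.01% Triton X-100. Cruzain 1.5 nM; substrate Z-FR-AMC 2 uM; 15 min compound preincubation at room temperature.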
# MARV entry inh: blocks Marburg virus binding to or entry into cells; Marburg virus pseudotyped entry inhibition, cell reporter; control for the full effect not named in the record; about a third of the inactives were read at about 46 µM; Potency, µM (titrated, usually from 37.8 µM), for the others: at the highest dose activity change, negative = inhibition, actives largely listed as inhibitors; actives 1.8% (n = 300,000); AID 540276; active = well fitted inhibition curve with a large enough effect; inconclusive = small, poorly fitted or top-dose-only effect, or effect the other way; inactive = flat fitted curve, though single readings scatter; tested in HEK293 cells; about a fifth of its hits are not listed in these tables; further: on the % scale 0 is the no-effect control and ±100 the full control effect; luciferase read-out
# Active calls of the source: *; ? = inconclusive; . = not tested or not shown; & = joins results of further samples; [ ] = another dose, or the depositor's remark. Unless noted, the call rests on the fitted dose curve; in most records, active means well fitted rising curve with a large enough effect; inconclusive means small, poorly fitted or top-dose-only effect; inactive means no such curve, though single readings can be large or run the other way. Potency means the concentration at half of the fitted maximal effect.
item	smiles	RE007 growth inh	LASV entry inh	NS1 inh	SARS PLpro yeast	Cruzain noTriton	StopGo reporter	Cruzain Triton	MARV entry inh
1	c1ccc(C(c2ccccc2)c2noc(CN3CCC(c4ccncc4)CC3)n2)cc1	-7%	?	-2%	-1%	.	-13%	.	?
2	CC12CCC(=O)C=C1CCC1C2CCC2(C)C(c3csc(N)n3)CCC12 (stereo not drawn)	59%	13µM*	.	.	.	13µM*	.	?
3	O=C(Nc1ccc(Cc2ccncc2)cc1)c1ccc(S(=O)(=O)N2CCCC2)cc1	-16%	?	.	1%	.	16µM*	.	?
4	CCOc1ccc(/C(O)=C2/C(=O)C(=O)N(CC3CCCO3)C2c2cccs2)cc1 (stereo not drawn)	.	2%	15%	1%	-10%	-14%	-5.6%	?
5	Cc1cc(=O)[nH]c(/N=C(\N)Nc2ccc(SC(F)F)cc2)n1	-9%	12%[46.1 µM]	.	3%	.	-20%	.	?
6	COc1ccc(CCNC(=O)CCCOc2cccc(C)c2C)cc1OC	5%	.	-54%	0%	.	-14%	.	.
7	CCC(CC)C(=O)NCCc1cc2ccc(C)cc2[nH]c1=O	-3%	9%	1%	-2%	25%	-12%	-0.9%	?
8	CCOc1ccc2nc(N3CCCC(C(=O)NCCc4ccc(OCC)c(OCC)c4)C3)sc2c1 (stereo not drawn)	.	.	.	.	22%	10%	-2.9%	-12%[46.1 µM]
9	CCC(=O)OCC(=O)c1cc(C)n(-c2ccc(Br)cc2)c1C	7%	-6%	.	-12%	.	-29%	.	14%
10	Cc1cc(OCC(=O)Nc2cc(-c3nc4ccccc4[nH]3)ccc2C)ccc1Cl	.	-6%[46.1 µM]	.	.	?	?	-27%	21%[46.1 µM]
11	CCOC(=O)c1[nH]c2ccc(C)cc2c1N	-2%	?	4%	-26%	-5%	60%	-3.7%	14%&14%
12	COC(=O)c1ccc(COc2ccc(/C=N/Nc3nc(C)cc(=O)[nH]3)cc2)cc1	22%	.	4%	-1%	.	12%	.	.
13	Cc1ccc(C)c(NC(=O)CSc2nnc(-c3ccccc3)o2)c1	3%	.	-19%	0%	-4%	-8%	0.3%	.
14	O=C(NCCN1CCOCC1)c1cc(Sc2cccc(Cl)c2)nc2ccccc12	4%	-5%	3%	-14%	-10%	-14%	-4.8%	?
15	CCCCS(=O)(=O)c1sc2nc3c(cc2c1N)CCCC3	-4%	1%	-15%	-7%	0%	-13%	-5.0%	-16%
16	Cc1c(C(=O)OCC(=O)c2c(N)n(CC(C)C)c(=O)n(C)c2=O)oc2ccccc12	8%	-23%	?	-10%	?	?	-5.0%	10µM*
17	CCOC(=O)c1cc(C(C)(C)C)oc1CNC(=O)c1c(C)oc2c1CCCC2	0%	?	-8%	-10%	27%	-19%	-13%	-26%[46.1 µM]
18	CC(=O)Nc1ccc(S(=O)(=O)NCc2nc(-c3ccccc3Cl)no2)cc1	0%	16%	1%	1%	.	2%	.	-1%[46.1 µM]
19	CCOC(=O)c1c(C)oc2ncnc(N3CCN(c4ccc(C)cc4C)CC3)c12	.	4%[46.1 µM]	.	.	-2%	?	0.9%	-13%[46.1 µM]
20	Cc1ccc2[nH]cc(CCNC(=O)c3ccco3)c2c1	4%	3%[46.1 µM]	-6%	-9%	.	0%	.	-10%[46.1 µM]
21	Cc1ccc(C(=S)NCS(=O)(=O)c2ccc(C)cc2)cc1	4%	-2%	-11%	4%	6%	10%	-14%	?
22	Cc1ccc2nc3c(cc(C(=O)NCC4CCCO4)c(=N)n3CCCOC(C)C)c(=O)n2c1 (stereo not drawn)	-11%	-1%	-4%	0%	?	14%	?	?
23	COC(=O)c1cc(Br)c(=O)n(-c2ccc(C(C)=O)cc2)c1	.	.	1%	13%	-8%	.	2.0%	0%
24	COc1ccc(S(=O)(=O)N2CCOCC2)cc1C(=O)NCC(c1ccccc1)c1ccccc1	14%	?	.	.	.	-2%	.	?
25	COc1cc(/C=C2/SC(=O)NC2=O)ccc1Oc1ccc([N+](=O)[O-])cc1[N+](=O)[O-]	11%	.	-40%	-1%	.	?	.	1%
26	N#Cc1ccc(/C=C/C(=O)c2cccnc2)cc1	45µM*	?	.	-25%	.	40µM*	.	?
27	CCC(CC)c1nnc(NC(=O)C2=NNC(=O)CC2)s1	8%	3%	.	-2%	.	13%	.	-6%[46.1 µM]
28	CC(=O)Nc1ccc(OS(=O)(=O)c2ccc([N+](=O)[O-])cc2)cc1	2%	.	3%	-1%	.	3%	.	.
29	CN(C)CCOC(=O)C1(c2ccccc2)CCOCC1	26%&-3%	-3%&3%	-1%&10%	6%&3%	-1%&-10%	-13%&-15%	3.4%&3.8%	15%[46.1 µM]

# Look-ups from above:
# cpd 3 | StopGo reporter: 16µM*
# cpd 13 | SARS PLpro yeast: 0%

# Two records drawn at random from the list so far:
item	smiles	RE007 growth inh	LASV entry inh	NS1 inh	SARS PLpro yeast	Cruzain noTriton	StopGo reporter	Cruzain Triton	MARV entry inh
7	CCC(CC)C(=O)NCCc1cc2ccc(C)cc2[nH]c1=O	-3%	9%	1%	-2%	25%	-12%	-0.9%	?
27	CCC(CC)c1nnc(NC(=O)C2=NNC(=O)CC2)s1	8%	3%	.	-2%	.	13%	.	-6%[46.1 µM]

# Just LASV entry inh, Cruzain Triton and Cruzain noTriton, for two of the compounds above:
No.	SMILES	LASV entry inh	Cruzain Triton	Cruzain noTriton
22	Cc1ccc2nc3c(cc(C(=O)NCC4CCCO4)c(=N)n3CCCOC(C)C)c(=O)n2c1 (stereo not drawn)	-1%	?	?
10	Cc1cc(OCC(=O)Nc2cc(-c3nc4ccccc4[nH]3)ccc2C)ccc1Cl	-6%[46.1 µM]	-27%	?

# Compound profiles, as listed above. Order of values: RE007 growth inh	LASV entry inh	NS1 inh	SARS PLpro yeast	Cruzain noTriton	StopGo reporter	Cruzain Triton	MARV entry inh
# COC(=O)c1ccc(COc2ccc(/C=N/Nc3nc(C)cc(=O)[nH]3)cc2)cc1 is listed with 22%	.	4%	-1%	.	12%	.	.
# CCOc1ccc(/C(O)=C2/C(=O)C(=O)N(CC3CCCO3)C2c2cccs2)cc1 (stereo not drawn) is listed with .	2%	15%	1%	-10%	-14%	-5.6%	?
